Source: PubChem (several laboratories)
Mtb growth – M. tuberculosis H37Rv growth inhibitors, H37Rv strain (AID 1626); M. tuberculosis H37Rv growth inhibition; higher % means a stronger effect; inhibition, % at 10 µM; hits with a dose series show IC50 in µM; 220,000 compounds, 0.95% hits;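 active = confirmed in a dose series; inconclusive = inhibition above 80% but not taken into the dose series; inactive = below 80% or under 30% at every dose of the series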;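 also: bacteria incubated seven days before Alamar blue readout; 0% = bacteria only wells and 100% = bacteria with antibiotic wells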
Mtb betalactam – beta-lactam sensitization of Mtb H37Rv. M. tuberculosis H37Rv growth with meropenem, percent inhibition; hits of this screen are not shown here. inhibition, % at 25 µM. 330,000 compounds, 0.27% hits. AID 434955;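 active = about 74% or more and at least 40 points above the plate without the antibiotic, then above 30% in a dose series; inconclusive = first-round hits that could not be retested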;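 also: growth measured after seven days incubation then overnight dye step; 0% = bacteria only wells and 100% = bacteria with antibiotic; twin plates without the antibiotic show which effects depend on it; some results filed as inactive read as strong as hits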
RecA splice inh – blocks M. tuberculosis RecA intein splicing. cell-free RecA intein splicing, fluorescence. AID 2221. inhibition, %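 (about 9 µM by stock and volumes)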. 290,000 compounds, 0.75% hits; in the data active = inhibition above about 30%; inconclusive = no clear call, values can overlap the other calls;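 also: 0% = vehicle wells and 100% = reference inhibitor control wells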
Target sequence (P9WHJ3 whole entry, looked up, canonical isoform): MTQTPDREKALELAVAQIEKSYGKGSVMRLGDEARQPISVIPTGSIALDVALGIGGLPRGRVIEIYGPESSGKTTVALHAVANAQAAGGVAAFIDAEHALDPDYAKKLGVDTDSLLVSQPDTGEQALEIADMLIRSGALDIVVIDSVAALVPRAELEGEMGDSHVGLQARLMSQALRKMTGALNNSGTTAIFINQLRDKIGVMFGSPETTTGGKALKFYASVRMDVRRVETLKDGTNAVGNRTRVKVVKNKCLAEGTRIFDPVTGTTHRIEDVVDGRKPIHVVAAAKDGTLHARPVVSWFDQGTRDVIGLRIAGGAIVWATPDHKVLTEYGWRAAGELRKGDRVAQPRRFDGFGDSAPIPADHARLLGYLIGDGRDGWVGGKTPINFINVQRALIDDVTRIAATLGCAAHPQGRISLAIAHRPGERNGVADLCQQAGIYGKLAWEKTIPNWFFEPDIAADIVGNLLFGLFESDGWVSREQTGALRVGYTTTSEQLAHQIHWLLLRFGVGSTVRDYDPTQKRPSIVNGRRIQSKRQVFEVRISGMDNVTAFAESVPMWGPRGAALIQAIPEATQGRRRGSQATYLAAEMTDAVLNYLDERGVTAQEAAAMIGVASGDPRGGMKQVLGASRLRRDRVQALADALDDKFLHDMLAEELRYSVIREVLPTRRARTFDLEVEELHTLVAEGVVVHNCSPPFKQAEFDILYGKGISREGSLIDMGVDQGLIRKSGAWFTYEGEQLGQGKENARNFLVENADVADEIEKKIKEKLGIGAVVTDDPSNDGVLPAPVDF
Arbovirus inh – arbovirus infection inhibition; 200,000 compounds, 0.37% hits; arbovirus infection cell-based antiviral screen; inhibition, % at 10 µM;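 active = inhibition from about 30%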;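 also: bluetongue infection of BSR cells; cell survival read as ATP light after 72 h; 0% = infected wells without compound and 100% = uninfected wells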
YopH PTP inh – blocks Yersinia enterocolitica YopH tyrosine phosphatase. fluorescence Ex485/Em525. inhibition, %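 (about 10 µM by stock and volumes)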. 140,000 compounds, 0.16% hits. AID 898;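 active = inhibition of 50% or more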;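 also: controls were vehicle for no effect and minimum signal wells for full effect; inactives centre near -20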
Arbovirus inh repeat – further read-out of Arbovirus inh, marked with its call; inhibition, %; measured here: 10K subset replicate screen; many hits read low in the repeat;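 first of two repeat runs on a subset; 0% = infected and 100% = uninfected wells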
An asterisk follows results filed as active; ? = inconclusive; . = no result given.

SMILES | Mtb growth | Mtb betalactam | RecA splice inh | Arbovirus inh | YopH PTP inh | others
CN(C)CCn1c(=S)[nH]c2ncccc2c1=O | -1% | -4 | 4.6 | 4 | .
Cc1noc(C)c1S(=O)(=O)N1CCC(C(=O)NCCC2=CCCCC2)CC1 | -3% | -3 | . | 0 | 4
CN(CCN(C)C(C)(C)C)C(=O)C(c1ccccc1)c1ccccc1 | 6% | -10 | 0.7 | . | .
Cc1[nH]nc2c1C(Cc1ccccc1)C(C#N)=C(N)O2 (stereo unspecified) | -11% | -5 | 27 | 1 | -37
CN(C)CCCNCC(=O)Nc1ccccc1N1CCOCC1 | -10% | -3 | -0.4 | 10 | -10
CCOc1ccc(CN2CCC(=O)NC2=O)cc1 | -3% | -7 | -0.7 | -2 | -25
C[C@H](NC(=O)[C@H]1N2C(=O)c3ccccc3C2SC1(C)C)C(=O)NCC1CCCO1 (stereo partly specified) | . | -2 | -1.5 | . | .
COc1ccc(C(=O)Oc2ccc(/C=N/NC(=O)Cc3ccc([N+](=O)[O-])cc3)cc2)cc1 | . | 0 | 3.3 | -1 | -25
COc1c(Cl)cc(-c2noc(C)c2C(=O)NCc2ccccc2)cc1Cl | 2% | 18 | . | 3 | -38
FC(F)(F)c1nc(-c2cccnc2)ncc1-c1nnnn1-c1ccccc1 | -2% | -5 | -2.3 | 0 | -18
CCc1nnc(SCC(=O)N2CCCc3ccccc32)nc1CC | 0% | 0 | -0.3 | 5 | -23
O=C(c1ccc([N+](=O)[O-])cc1)N1CCc2ccccc21 | . | -3 | -2.4 | . | .

Structures shown so far with an NH in an aromatic ring, in the order listed:
SMILES | Mtb growth | Mtb betalactam | RecA splice inh | Arbovirus inh | YopH PTP inh | others
CN(C)CCn1c(=S)[nH]c2ncccc2c1=O | -1% | -4 | 4.6 | 4 | .
Cc1[nH]nc2c1C(Cc1ccccc1)C(C#N)=C(N)O2 (stereo unspecified) | -11% | -5 | 27 | 1 | -37

A draw from above in order of length of the SMILES, lowest first:
SMILES | Mtb growth | Mtb betalactam | RecA splice inh | Arbovirus inh | YopH PTP inh | others
CN(C)CCCNCC(=O)Nc1ccccc1N1CCOCC1 | -10% | -3 | -0.4 | 10 | -10
O=C(c1ccc([N+](=O)[O-])cc1)N1CCc2ccccc21 | . | -3 | -2.4 | . | .
CN(CCN(C)C(C)(C)C)C(=O)C(c1ccccc1)c1ccccc1 | 6% | -10 | 0.7 | . | .

New compounds follow:
SMILES | Mtb growth | Mtb betalactam | RecA splice inh | Arbovirus inh | YopH PTP inh | others
O=C(NCCN1C(=O)S/C(=C\c2ccc(F)cc2)C1=O)c1cccc(S(=O)(=O)N2CCOCC2)c1 | 2% | 4 | 11 | 5 | -26
O=C(NCc1ccccn1)Nc1ccccc1F | . | 5 | 1.4 | . | .
CCCCN(CC)S(=O)(=O)c1ccc(C(=O)Nc2nnc(-c3ccccc3Cl)o2)cc1 | 61% | 91 | -2.7 | -14 | -15
c1coc(Cn2nnnc2CN2CCN(C3CCCCC3)CC2)c1 | 3% | -2 | -6.0 | 3 | -31
CCOC(=O)/C(=C\c1cn(C)c2ccccc12)[N+](=O)[O-] | 2% | -2 | 11 | -8 | 1
COc1ccc(-c2cn(Cc3ccc([N+](=O)[O-])cc3)nn2)cc1 | . | -2 | 0.5 | . | .
C=CCN1C2=NCCCN2c2ccccc21 | 5% | -7 | -1.3 | . | .
CCOC(=O)c1[nH]c2cc(OC)c(OC)cc2c1NC(=O)c1nonc1C | -5% | 14 | -1.9 | 1 | -40
Cc1cc(=O)oc2cc(OCC(=O)Nc3nnc(C(C)C)s3)ccc12 | -4% | -12 | 0.8 | -8 | -44
CC(=O)c1ccc(S(=O)(=O)NC2CC(=O)N(c3ccc(C)c(C)c3)C2)cc1 (stereo unspecified) | . | -5 | -0.2 | . | .
CCOc1ccc2[nH]c(C)cc(=O)c2c1 | -3% | ? | -0.1 | -2 | -5 | Arbovirus inh repeat=-2
C=CCOc1ccc(-c2nc3c(c(=O)[nH]c(=O)n3Cc3ccccc3)n2CCCOC)cc1 | . | 8 | -1.2 | . | .
COC(=O)c1c(C)[nH]c(C)c1-c1ccccc1 | -2% | 18 | 1.5 | -3 | -17
S=C(NCc1cccs1)Nc1cc(Cl)cc(Cl)c1 | 6% | -7 | 16 | . | .
Cc1c(C(=O)NC(C)CN2CCCCC2)oc2ccccc12 (stereo unspecified) | -6% | . | 5.7 | 1 | -23
COc1ccc(NC(=O)C(Sc2nnc3ccccn23)c2ccccc2)cc1Cl (stereo unspecified) | -7% | 4 | -2.5 | 9 | -38
CCOc1cc(NC(=O)C2CC2)c(OCC)cc1NC(=O)c1ccccn1 | 7% | -1 | -2.4 | -10 | -22
Cc1ccccc1S(=O)(=O)Nc1nc2ccccc2nc1Cl | -11% | -2 | -2.7 | 23 | .
O=C(CN(Cc1cccs1)C(=O)CNS(=O)(=O)c1ccc(F)cc1)NCC1CCCO1 (stereo unspecified) | 5% | -7 | -0.1 | 3 | .
Cc1cc(C)c(C(=O)COC(=O)CCn2c(C)csc2=O)cc1C | . | -4 | 2.7 | . | .
Cn1c(=O)c2c(nc(SC3C(=O)CC(C)(C)CC3=O)n2C)n(C)c1=O | -1% | -2 | 1.5 | . | .
CCCCOCCCNC(=O)N[C@H](C(=O)OC)C(C)C | -3% | -5 | -4.9 | 1 | -21
COCCn1nnnc1C(c1ccc(OC)cc1OC)N1CCN(c2ccccc2F)CC1 (stereo unspecified) | -6% | 2 | 0.8 | 1 | -39
COc1ccc(OC)c(NC(=O)C2CCC(CNc3c(N4CCC(C)CC4)c(=O)c3=O)CC2)c1 (stereo unspecified) | 2% | 0 | 4.7 | -13 | -49 | Arbovirus inh repeat=-7
Cc1cccnc1NC(=O)CNC(=O)C12CC3CC(CC(Cl)(C3)C1)C2 | . | -8 | 2.9 | . | .
CC(c1ccccc1)C1CC(=O)N(C2CCCCC2)C1=O (stereo unspecified) | 4% | -2 | 2.0 | 7 | -22
COc1ccc(-c2nnc(SCC(=O)c3[nH]c(C)c(C(C)=O)c3C)o2)cc1 | 9% | 14 | . | -33 | -11
COCCn1c(SCC(=O)Nc2cc(C)on2)nc2ccccc21 | 5% | -3 | -4.9 | -3 | .
CC(C)C(=O)Nc1ccc(C(=O)NNC(=S)NC(=O)c2ccco2)cc1 | 4% | 16 | -3.6 | . | .
CCc1ccc(S(=O)(=O)Nc2cccc(C3OCCCO3)c2)cc1 | -1% | 0 | 3.4 | 4 | .
CCn1c(CC(=O)Nc2ccccc2OC)nnc1SCC(=O)Nc1ccccc1F | 3% | 7 | 0.1 | 2 | .
CCOc1ccc(N2C(=O)c3ccc(C(=O)OCc4c(C)noc4C)cc3C2=O)cc1 | -10% | 12 | -3.3 | 2 | -33
Cc1ccc(N2CC(C(=O)Nc3nnc(C(C)C)s3)CC2=O)cc1 (stereo unspecified) | -5% | 6 | -3.5 | 4 | -32
O=C(CSc1nnc(CNc2ccc(F)cc2)n1Cc1ccccc1)N1CCOCC1 | 1% | ? | -0.5 | 1 | -29
Cc1cc(=O)[nH]c(SCC(=O)Nc2cc(S(=O)(=O)N3CCCC3)ccc2Cl)n1 | -20% | -7 | 0.4 | . | .
COC(=O)c1cc(NC(=O)C2COc3ccccc3O2)ccc1Cl (stereo unspecified) | 7% | 75 | 3.7 | 15 | -24
O=C(NC1(C(=O)NC2CCCCC2)CCCCC1)c1ccccn1 | -5% | ? | -1.6 | 3 | -31
CC(=O)c1ccc(NC(=O)C(C)n2nc(-c3ccccc3)c3cc(Cl)ccc32)cc1 (stereo unspecified) | . | 3 | . | -21 | -15
O=C(CN(CCc1ccccc1)C(=O)CNS(=O)(=O)c1ccccc1)NCc1ccco1 | 6% | 1 | 4.3 | 0 | -26
O=Cc1ccc(Oc2cnccn2)cc1 | 4% | 3 | -0.1 | 13 | .
CCOC(=O)N1CCC(NC(=O)CC(NS(=O)(=O)c2ccc(Cl)cc2)c2ccco2)CC1 (stereo unspecified) | . | -11 | -1.4 | -4 | -48
Cc1nnc2c(NC3CCCCC3)nc3ccccc3n12 | . | -9 | -1.0 | . | .
CCN(CC(=O)Nc1ccc(N2CCOCC2)cc1)C(=O)COc1ccccc1OC | -5% | -7 | 1.2 | 3 | .
COc1ccc(C(=O)O)cc1S(N)(=O)=O | 5% | -1 | -1.1 | 5 | .
Cc1ccccc1N1C(N)=NC(N)=NC1(C)C | -4% | -3 | -0.2 | 1 | 25
O=C(O)c1ccccc1SCc1cn2cc(Cl)ccc2n1 | 0% | -6 | -6.1 | 1 | .
CCN(CC)C(=O)c1c(C)nc2ccccn12 | 0% | -3 | -0.9 | 8 | 2
O=C(Nc1ccc(N2CCOCC2)c2nonc12)C1CCCC1 | -10% | 1 | 1.6 | -5 | 18
Oc1ccc(/C=N\Nc2cc(N3CCOCC3)nc(N3CCOCC3)n2)c(O)c1 | 2% | -5 | -3.0 | -15 | 38
COc1ccc(N(C(=O)C2CCCCC2)C2C=CS(=O)(=O)C2)c(OC)c1 (stereo unspecified) | 2% | -5 | 1.2 | -1 | -28
CCN(CC)S(=O)(=O)c1ccc(N2CCOCC2)c(NC(=O)c2ccc3ccccc3c2)c1 | -2% | 3 | 1.8 | 0 | -8
Cc1ccc2[nH]c3c(=O)n(N)c(C)nc3c2c1 | -2% | -4 | -1.5 | 5 | .
COP(=O)(OC)C(Nc1ccccn1)c1ccccc1 (stereo unspecified) | 5% | 3 | -3.8 | -3 | -30
O=S(=O)(Nc1cccc2ccccc12)c1ccccc1F | . | 0 | 4.1 | . | .
CC(C)C[C@@H](CO)N1CCN(Cc2ccc(Br)cc2)CCC1=O | . | -5 | 0.4 | . | .
CC(NC(=O)C(C)N1C(=O)C2C3CC(C(Br)C3Br)C2C1=O)c1ccccc1 (stereo unspecified) | 68% | -9 | 5.7 | 7 | -18
CC(NC(=O)Cc1cccc2ccccc12)C(=O)N1CCC(=O)CC1 (stereo unspecified) | -8% | -8 | -0.4 | 3 | .
O=c1[nH]c(SCc2cccc(F)c2)nc2ccccc12 | 1% | -7 | 1.5 | . | .
CC1CCN(C(=O)N2c3ccccc3Sc3ccccc32)CC1 | 8% | 5 | 19 | 12 | -5
CC(C)c1nnc(NC(=O)CS(=O)(=O)c2ccccc2)s1 | . | -4 | 0.5 | . | .

The final four compounds of the part before open the next one.
SMILES | Mtb growth | Mtb betalactam | RecA splice inh | Arbovirus inh | YopH PTP inh | others
CC(NC(=O)Cc1cccc2ccccc12)C(=O)N1CCC(=O)CC1 (stereo unspecified) | -8% | -8 | -0.4 | 3 | .
O=c1[nH]c(SCc2cccc(F)c2)nc2ccccc12 | 1% | -7 | 1.5 | . | .
CC1CCN(C(=O)N2c3ccccc3Sc3ccccc32)CC1 | 8% | 5 | 19 | 12 | -5
CC(C)c1nnc(NC(=O)CS(=O)(=O)c2ccccc2)s1 | . | -4 | 0.5 | . | .
CN(c1ccccc1)c1nc(N)c([N+](=O)[O-])c(NC2CCCCC2)n1 | . | 5 | -5.3 | . | .
CC(Sc1nc2ccccc2o1)C(=O)O (stereo unspecified) | 3% | 9 | . | 11 | -34
O=C(Cc1ccc(F)cc1)Nc1nc(-c2ccc(F)cc2)cs1 | . | 6 | 0.9 | . | .
COc1ccc(C(=O)NC(=O)CSc2nnc(-c3ccco3)n2-c2ccccc2)cc1 | . | -20 | . | 6 | -22
COc1cc2nc(-c3ccccc3C)oc(=O)c2cc1OC | . | -18 | 0.7 | . | .
COC(=O)C1=C(C)Nc2nnnn2C1c1ccco1 (stereo unspecified) | -3% | -1 | 0.1 | 5 | -18
CCc1noc(C)c1C(=O)OCC(=O)Nc1c(F)cccc1F | . | -6 | -2.5 | . | .
NC(=O)c1ccc(NC(=O)C2CCCO2)cc1 (stereo unspecified) | -9% | -6 | -1.7 | 13 | 9
O=C(NCC(c1ccco1)N1CCN(c2ccc(F)cc2)CC1)C1CCCCC1 (stereo unspecified) | . | -9 | 3.6 | . | .
Cc1ccc(CCC(=O)Nc2ccc(C#N)cc2)o1 | . | -13 | -4.6 | . | .
COc1ccc(N(CC(=O)NC2CC3CCC2C3)S(=O)(=O)c2ccc(C)cc2)cc1OC (stereo unspecified) | . | -3 | 1.0 | . | .
CCOCC(=O)Nc1ccccc1C(=O)OCC | -7% | 96 | -0.2 | 7 | -35
Clc1cc2c(nn1)Nc1ccccc1S2 | -9% | -5 | -1.0 | . | .
N#CCn1nnc(-c2ccc3c(c2)OCO3)n1 | -3% | 7 | -2.1 | -5 | -5 | Arbovirus inh repeat=2
Cc1cccc(NC(=O)[C@H](Cc2ccccc2)NC(=O)[C@@H]2Cc3ccccc3CN2)c1 | . | 4 | 0.7 | . | .
CCn1c(=O)cc(N2CCOCC2)[nH]c1=O | 5% | 6 | 0.7 | 6 | .

This is a subset, so the mix of outcomes need not match the whole.
